# Screening results from PubChem.
# ARFGAP1 inhibitor: inhibitors of rat ARFGAP1 GAP activity, primary screen, biochemical, fluorescence polarization, GDP tracer. ADP-ribosylation factor GTPase-activating protein 1 (Rattus norvegicus), Q62848. Arfgap1-stimulated ARF1 GTP hydrolysis, GDP FP detection. inhibition, % at 16.5 µM. hit rate 0.26% among 360,000. AID 651572, 2012;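 active = inhibition above a per-plate limit, mean inhibition of low control wells plus 3 SD, cut at about 25% in these data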;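 also: 0% = DMSO wells with enzyme and 100% = wells lacking Arfgap1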
#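 Material: truncated rat Arfgap1 GAP domain; Incubation: compound-enzyme preincubation 20 min, reaction 120 min, detection 60 min, 25 °C; Read-out: percent inhibition of Arfgap1-stimulated GTP hydrolysis; Technique: FP, GDP Alexa 633 tracer displaced from anti-GDP antibody, 620/688 nm; Controls: No-Arfgap1 wells (100%) versus DMSO full-reaction wells (0%); Replication: single well per compound.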
# rCAG RNA binder: binders of r(CAG) RNA repeats, primary screen, biochemical, fluorescence. r(CAG) RNA repeat, TO-PRO-1 dye displacement fluorescence. inhibition, % at 3 µM. hit rate 1.3% among 370,000. AID 651821, 2012;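 active = inhibition above the plate cutoff, the mean of all test compounds on that plate plus 3 SD, cut at about 35% in these data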;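 also: 0% = DMSO alone and 100% = 100 µM mitoxantrone as full dye displacement; higher means more dye released from RNA so lower well fluorescence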
# GAA850 FXN act: FXN promoter activators, primary screen, cell-based, luciferase luminescence, HEK293 lucGAA850 | activation, % at 6 µM | hit rate 0.56% among 360,000 | HEK293 lucGAA850 FXN promoter luciferase reporter, 24 h; percent of 10 µM SAHA response | AID 540364, 2011;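 active = activation above the average of all compounds screened plus 3 SD, cutoff fixed separately per campaign, cut at about 7.5% in these data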;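 also: 0% = DMSO wells and 100% = 10 µM SAHA wells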
# GC-B act: human GC-B receptor activators, primary screen, HEK293 GC-B cells, cGMP TR-FRET, EC30 CNP | Atrial natriuretic peptide receptor 2 (Homo sapiens), P20594 | 0% at EC30 CNP, 100% saturating CNP | activation, % at 10 µM | hit rate 0.11% among 370,000 | AID 1920062, 2024;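 active = activation at 10 µM reaching about 35% in either raw or pattern-adjusted values, limit read from the data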
# ADAM10 inh: human ADAM10 inhibitors, primary screen, biochemical, QFRET, HTS; hit rate 0.62% among 370,000; recombinant ADAM10, EDANS/DABCYL FRET peptide cleavage, 3 h; inhibition, % at 7 µM; AID 720582, 2013; Disintegrin and metalloproteinase domain-containing protein 10 (Homo sapiens), O14672;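 active = inhibition above a per-campaign cutoff equal to the mean of compounds falling between control-based bounds plus 3 SD, cut at about 20% in these data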;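 also: 0% = DMSO wells while the 100% control is not disclosed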
# DDE Tn6 FP inh: inhibitors of Tn6 peptide binding to fibrin DD(E), primary screen, biochemical, fluorescence polarization, human fibrin, Tn6 probe. Fibrin DD(E) TRITC-Tn6 fluorescence polarization displacement. inhibition, % at 8.3 µM. hit rate 0.21% among 370,000. AID 720509, 2013;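 active = inhibition above a per-campaign cutoff: mean of compounds within control limits plus 3 SD, cut at about 15% in these data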;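 also: 0% = median of all compound wells on the plate and 100% = blocking peptide control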
# GC-A act: GC-A stimulated cGMP production enhancers – HEK293 GC-A cells, cGMP TR-FRET, EC30 ANP, primary screen. Atrial natriuretic peptide receptor 1 (Homo sapiens), P16066. 0% at EC30 ANP, 100% saturating ANP. activation, % at 10 µM. hit rate 0.14% among 370,000. AID 1671463, 2021; in the data active = activation above about 40%
# ASAP1 GAP inh: inhibitors of human ASAP1 ArfGAP activity, primary screen, biochemical, fluorescence polarization; inhibition, % at 16.5 µM; AID 624377, 2012; ASAP1-stimulated ARF1 GTP hydrolysis, GDP FP detection; hit rate 0.19% among 360,000; in the data active = inhibition above about 25%;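 also: 0% = vehicle with enzyme and substrate and 100% = no enzyme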
# Target sequence (Q9ULH1 325-724 limits assumed): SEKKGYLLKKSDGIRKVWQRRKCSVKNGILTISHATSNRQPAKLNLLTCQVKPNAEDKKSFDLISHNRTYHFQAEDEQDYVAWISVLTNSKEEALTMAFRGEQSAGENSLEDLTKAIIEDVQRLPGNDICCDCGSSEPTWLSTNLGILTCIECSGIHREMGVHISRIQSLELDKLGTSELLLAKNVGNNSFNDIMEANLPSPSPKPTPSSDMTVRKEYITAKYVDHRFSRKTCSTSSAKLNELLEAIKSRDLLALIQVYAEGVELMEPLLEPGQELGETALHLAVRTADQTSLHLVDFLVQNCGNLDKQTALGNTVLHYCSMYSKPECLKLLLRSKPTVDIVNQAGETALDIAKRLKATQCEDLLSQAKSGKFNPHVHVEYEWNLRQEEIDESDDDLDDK
# HGIII-sPLA2 inh: human group III sPLA2 inhibitors, primary screen, biochemical, QFRET, BODIPY PC-A2 liposome substrate; Group 3 secretory phospholipase A2 (Homo sapiens), Q9NZ20; QFRET BODIPY PC-A2 liposome hydrolysis, fluorescence; inhibition, % at 12.2 µM; hit rate 0.56% among 370,000;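 active = inhibition above mean plus 3 SD of compounds lying within the high and low control bounds, cut at about 19% in these data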;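 also: 0% = median of test compound wells and 100% = no enzyme DMSO wells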
# Target sequence (Q9NZ20 whole entry, looked up): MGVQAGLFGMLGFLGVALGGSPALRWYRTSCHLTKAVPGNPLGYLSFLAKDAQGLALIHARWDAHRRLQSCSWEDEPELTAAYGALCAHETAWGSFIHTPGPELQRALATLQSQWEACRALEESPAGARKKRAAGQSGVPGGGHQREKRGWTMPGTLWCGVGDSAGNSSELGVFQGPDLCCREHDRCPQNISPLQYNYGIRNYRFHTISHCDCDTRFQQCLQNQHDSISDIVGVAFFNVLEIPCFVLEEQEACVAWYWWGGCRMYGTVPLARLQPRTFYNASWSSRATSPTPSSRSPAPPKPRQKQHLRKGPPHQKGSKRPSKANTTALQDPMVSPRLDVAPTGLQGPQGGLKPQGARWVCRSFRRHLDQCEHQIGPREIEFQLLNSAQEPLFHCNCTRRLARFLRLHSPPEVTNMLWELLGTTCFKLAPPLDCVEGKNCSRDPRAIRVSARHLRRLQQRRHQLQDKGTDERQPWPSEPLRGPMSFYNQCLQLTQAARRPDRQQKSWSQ
# * marks the source's active call; other numbers are inactive results; i = inactive; . = not tested or not shown.
SMILES,ARFGAP1 inhibitor,rCAG RNA binder,GAA850 FXN act,GC-B act,ADAM10 inh,DDE Tn6 FP inh,GC-A act,ASAP1 GAP inh,HGIII-sPLA2 inh
CCn1c2ccccc2c2cc(NC(=O)N3CCCCC3)ccc21,10,6,2.6,-10,-160,7,-9,12,1
Cc1cccc2c1-c1sc(C(=O)NCCCN3CCc4ccccc4C3)cc1CO2,-14,5,0.1,-5,i,-1,-6,-11,-24
CSc1ccc2c(c1)N(CCC1CCCCN1C)c1ccccc1S2 (stereo not given),10,8,-2.7,-20,-11,-5,-38,-4,7
Nc1cc(Nc2ccc(Br)cc2)nc(N)n1,10,0,4.9,-3,-5,-7,-1,8,-6
CCCN(CCC)Cc1c(C(=O)N/N=C/c2ccoc2)nnn1-c1nonc1N,11,3,0.1,4,11,5,-3,-6,-6
COc1ccc(OC2C(=O)N(Cc3ccc4c(c3)OCO4)C2c2cccs2)cc1 (stereo not given),4,-4,-1.2,0,7,-3,4,10,-7
CN1CCc2cccc3c2[C@@H]1Cc1ccc(O)c(O)c1-3,.,.,5.5,.,.,.,.,.,.
COc1ccc(C(=O)O/N=C/c2ccc(S(=O)(=O)c3ccc(Cl)cc3)nc2)cc1,5,3,0.8,-7,3,2,-15,4,11
COc1ccc(C2c3c(C)nn(-c4ccccc4)c3NC(=O)N2c2ccccc2)cc1 (stereo not given),-3,-4,2.0,-16,0,5,-9,-4,-4
COCCNC(=O)CSc1nc2scc(-c3ccccc3)c2c(=O)[nH]1,-4,8,-2.1,-6,1,2,0,8,-5
O=c1ccc2ccc(O)cc2o1,5,-1,0.9,-4,i,-8,6,17,9
O=C(CCNC(=O)c1ccccc1Cl)NN=Cc1ccco1,7,1,0.5,1,-18,-2,2,1,4
CCN1CCC2(CC1)Oc1c(OC)cccc1C1CC(c3cccnc3)=NN12 (stereo not given),-11,-3,-0.2,-2,-1,5,-4,-3,-2
COc1ccc(Oc2nc3c(c(=O)n(C)c(=O)n3C)n2Cc2ccccc2)cc1,-7,1,0.4,-8,4,3,-3,12,5
CC(=O)Nc1cccc(NC(=O)CSc2nnc(Cc3cccn3C)n2-c2ccc(F)cc2)c1,-3,2,-1.1,-4,-2,-3,-2,5,-24
Cc1ccc(-c2nc3c(cnn3-c3ccccc3)c(=O)o2)cc1,-4,4,3.2,-8,-1,2,-8,16,3
O=C(COc1ccccc1)NNC(=O)COc1ccc([N+](=O)[O-])cc1,0,-2,1.3,4,-1,5,0,10,5
COCCN(CCOC)C(=O)CCn1c(=O)oc2ccccc21,0,-1,-1.6,3,-6,6,-1,-10,1
CCSc1nnc(NC(=O)CSc2nnc(Cc3cccn3C)n2-c2ccc(C)cc2)s1,-9,9,1.1,-4,2,-2,-1,2,-65
CSc1ccc(S(=O)(=O)NCc2ccccc2Cl)cc1,10,3,-0.1,-3,8,3,2,12,-21

# Reformatted as tab-separated lines: entries from further up
SMILES	ARFGAP1 inhibitor	rCAG RNA binder	GAA850 FXN act	GC-B act	ADAM10 inh	DDE Tn6 FP inh	GC-A act	ASAP1 GAP inh	HGIII-sPLA2 inh
CCn1c2ccccc2c2cc(NC(=O)N3CCCCC3)ccc21	10	6	2.6	-10	-160	7	-9	12	1
Cc1cccc2c1-c1sc(C(=O)NCCCN3CCc4ccccc4C3)cc1CO2	-14	5	0.1	-5	i	-1	-6	-11	-24
CSc1ccc2c(c1)N(CCC1CCCCN1C)c1ccccc1S2 (stereo not given)	10	8	-2.7	-20	-11	-5	-38	-4	7
Nc1cc(Nc2ccc(Br)cc2)nc(N)n1	10	0	4.9	-3	-5	-7	-1	8	-6
CCCN(CCC)Cc1c(C(=O)N/N=C/c2ccoc2)nnn1-c1nonc1N	11	3	0.1	4	11	5	-3	-6	-6
COc1ccc(OC2C(=O)N(Cc3ccc4c(c3)OCO4)C2c2cccs2)cc1 (stereo not given)	4	-4	-1.2	0	7	-3	4	10	-7
CN1CCc2cccc3c2[C@@H]1Cc1ccc(O)c(O)c1-3	.	.	5.5	.	.	.	.	.	.

# The list goes on.
SMILES,ARFGAP1 inhibitor,rCAG RNA binder,GAA850 FXN act,GC-B act,ADAM10 inh,DDE Tn6 FP inh,GC-A act,ASAP1 GAP inh,HGIII-sPLA2 inh
O=C(COc1ccc(Cl)cc1)Nc1ccccc1CO,1,3,4.5,1,-1,1,-6,9,1
COc1ccc(C(=O)N/C(=C\c2cccs2)c2nc3ccccc3[nH]2)cc1OC,4,3,1.3,2,-37,1,-5,-2,5
CCC[C@@H]1C[C@@H](C(=O)NC(C(C)Cl)[C@H]2O[C@H](SC)[C@H](O)[C@@H](O)[C@H]2O)N(C)C1 (stereo not given in full),3,-1,-1.1,2,-3,2,4,11,-7
Cc1ccc(OCCNC(=O)/C=C/c2ccc([N+](=O)[O-])cc2)cc1C,-10,0,2.2,-5,7,-3,-3,-1,-1
Brc1cccc(OCCCNC2CCCC2)c1,4,5,0.6,-3,-2,-3,-6,6,-1
COC(=O)C1=C(C)NC(C)=C(C(=O)OC)C1c1ccccc1[N+](=O)[O-],3,0,0.4,-15,-20,-3,-2,10,-5
Cc1ccc(CNC(=O)C(NS(=O)(=O)c2cccc3nsnc23)C(C)C)cc1 (stereo not given),4,-3,-2.6,-5,4,-3,-5,-14,-2
CCCCn1c(N)c(N(CC)C(=O)c2ccc(-c3ccc(Cl)cc3)o2)c(=O)[nH]c1=O,-21,5,0.8,1,-27,1,1,-2,-3
CC(=O)c1ccc(NC(=O)C(C)OC(=O)C(C)Oc2cccc(C)c2)cc1 (stereo not given),2,-2,1.5,2,-3,-5,0,-2,-4
CC(=O)Nc1cccc(C(=O)O)n1,8,0,1.8,6,-8,1,5,-2,0
COc1c(Cl)cnn(-c2ccc(C)cc2)c1=O,1,-1,2.6,-3,-8,-3,9,12,8
O=C(O)c1ccc(N=C2SCC(=O)N2Cc2ccccc2)cc1,-11,3,-0.6,3,6,-1,3,-3,-2
O=C(/C=C/c1ccco1)Nc1nc(-c2ccccc2)cs1,-2,4,1.6,2,-2,13,6,9,-6
N#CC1=C(N)Oc2c(oc(CO)cc2=O)C12C(=O)Nc1ccc(Cl)cc12 (stereo not given),-7,4,-0.2,9,10,-6,4,2,4
O=C(NC1CCCC1)c1cc(Cl)ccc1[N+](=O)[O-],1,1,0.1,3,0,2,0,-2,3
Cc1ccc(C)c(N2CCN(C(=O)CCCN3C(=S)NC(C)(C)CC3C)CC2)c1 (stereo not given),1,-7,-2.6,8,7,4,-1,7,22*
CCC(=C(c1ccccc1)c1ccc(OCCN(C)C)cc1)c1ccccc1,-11,4,0.5,-2,-7,4,4,3,15
CC(C)(C)c1ccc(C(O)CCCN2CCC(C(O)(c3ccccc3)c3ccccc3)CC2)cc1 (stereo not given),2,1,0.1,-16,6,6,-23,5,-26
Cc1sc2ncnc(N3CCN(c4ncccn4)CC3)c2c1C,6,-1,0.7,5,-3,-4,-3,0,-1
CCCC1=C(C(=O)OCC)C(c2ccc(OC)c(CSc3ccccn3)c2)C(C#N)=C(N)O1 (stereo not given),8,-4,0.3,-15,-3,0,-22,-3,-44
Cc1cc(C)nc(/N=C(\N)Nc2ccc(F)c([N+](=O)[O-])c2)n1,8,6,4.6,-1,-4,1,3,-5,-2
Cc1c(-c2ccc(F)cc2)nc(N)c(C#N)c1-c1cccnc1,-2,-3,2.3,-1,-49,3,4,-13,-3
O=C(NN=C1CCCCCCCCCCC1)c1cccc(S(=O)(=O)N2CCOCC2)c1,-11,1,1.4,3,-7,3,0,-6,7
Cc1ccc(C)c(NC(=O)CN(C)C(=O)C2COc3ccccc3O2)c1 (stereo not given),11,1,0.1,0,3,-16,0,-4,-1
O=S(=O)(c1cccc2nsnc12)N1CCN(c2ncccn2)CC1,1,-3,4.6,4,2,-1,4,-9,-1
COc1ccc(CN(Cc2cccn2C)S(=O)(=O)c2ccccc2)cc1,4,-3,-0.7,-3,12,1,-5,-2,-36
Cc1ccc([N+](=O)[O-])cc1NC1CC(O)C(CO)O1 (stereo not given),-12,-1,0.8,3,0,0,2,-11,-1
O=S(=O)(NC1CCCCC1NCc1ccco1)c1ccc(Cl)cc1 (stereo not given),-1,-5,-1.1,6,6,7,-2,2,-2
CCC(C)n1c(C)nc2c(c1=O)c1nc3ccccc3nc1n2CCC1=CCCCC1 (stereo not given),4,-1,1.3,5,-56,9,12,5,1
CC(=O)NS(=O)(=O)c1ccc(NC(=O)/C=C/c2ccco2)cc1,-10,6,0.6,-2,-11,-3,2,-9,0
CC(=O)OCP(C)(=O)COC(C)=O,11,2,1.8,8,-9,-4,0,12,13
Cc1cc(-c2ccc(C)c(S(=O)(=O)NCCCN3CCCCCC3)c2)on1,8,2,-1.0,3,-1,0,-3,7,4
O=C(N/N=C/c1ccc(O)c2ncccc12)c1cccc(Br)c1,2,15,-3.7,-4,-4,-13,-2,-3,13
Cc1ccc(SCc2nc(-c3cccnc3)no2)cc1,-1,-8,0.2,3,-8,-7,1,-5,-1

# In the list so far, these contain an NH in an aromatic ring.
SMILES,ARFGAP1 inhibitor,rCAG RNA binder,GAA850 FXN act,GC-B act,ADAM10 inh,DDE Tn6 FP inh,GC-A act,ASAP1 GAP inh,HGIII-sPLA2 inh
COCCNC(=O)CSc1nc2scc(-c3ccccc3)c2c(=O)[nH]1,-4,8,-2.1,-6,1,2,0,8,-5
COc1ccc(C(=O)N/C(=C\c2cccs2)c2nc3ccccc3[nH]2)cc1OC,4,3,1.3,2,-37,1,-5,-2,5
CCCCn1c(N)c(N(CC)C(=O)c2ccc(-c3ccc(Cl)cc3)o2)c(=O)[nH]c1=O,-21,5,0.8,1,-27,1,1,-2,-3

# These rows are one share of the data; rates above refer to the full screens.
